Sfp PPTase inh: blocks B. subtilis Sfp PPTase activity; AID 1490; Potency, µM, for the others: max response, negative = inhibition, usual class: inhibitors; hit rate 3.5% among 310,000; Biochemical Sfp PPTase activity, qHTS; Q9F4F7; active = well fitted inhibition curve with a large enough effect; inconclusive = small, poorly fitted or top-dose-only effect, or another doubt; inactive = no such curve, though single readings can be large or run the other way;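 note: the enzyme is Sfp with the accession as filed and its product quenches rhodamine fluorescence; potency is the fitted concentration of half-maximal effect; 0% = enzyme reaction without inhibitor and -100% = no enzyme wells; top concentration of the series not given in the record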
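With Hepes-Na pH 7.6 buffer containing 10 mM MgCl2, Sfp (15 nM) modified BHQ-2-YbbR (12.5 uM) using rhodamine-CoA (5 uM). Two reads 30 minutes apart at 525/598 nm yielded each well's rate.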
ClpP mod: qHTS Assay for Activators of ClpP | ATP-dependent Clp protease proteolytic subunit (Bacillus subtilis (strain 168)), P80244 | purified B. subtilis ClpP, FRET peptide cleavage, 20 min | Potency, µM (titrated, usually from 57.5 µM), inactives show at the highest dose activity change, negative = active | hit rate 1.9% among 340,000 | AID 651965, 2013; active = well fitted falling curve with a large enough effect; inconclusive = small, poorly fitted or top-dose-only effect; inactive = no such curve, though single readings can be large or run the other way; note: potency is the fitted concentration of half-maximal effect; the source files actives as falling curves though it sought activators and does not explain the sign; nearly all actives have a fitted effect of over 65% in size; many hits overshoot -100%
Target sequence (P80244 whole entry, looked up): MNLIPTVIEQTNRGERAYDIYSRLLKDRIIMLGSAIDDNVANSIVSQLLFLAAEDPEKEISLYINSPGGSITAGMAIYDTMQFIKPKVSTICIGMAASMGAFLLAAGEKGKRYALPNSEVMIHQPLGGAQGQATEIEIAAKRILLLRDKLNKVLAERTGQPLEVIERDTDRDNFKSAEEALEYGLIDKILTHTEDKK
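Buffer: 100 mM Tris/HCl pH8, 100 mM KCl, 0.05% low protease BSA, 2.5% glycerol, 0.01% Tween-20. ClpP 10 microg/mL final; 20 min RT; delta FRET normalized to ADEP and DMSO controls.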
Menin MLL FP FL: menin-MLL binding inhibition, fluorescein peptide; Fluorescence polarization, fluorescein-MLL peptide displacement from menin; FP activity change, % at 61.4 µM; 290,000 tested, under 10 active; AID 1766; inconclusive = falling polarisation curve, or a change in total fluorescence; inactive = total fluorescence flat and polarisation flat or rising; no compound was filed as active; the % refers to the polarisation; negative = inhibition;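 note: % of control where 0% means no effect; inhibitors lower the polarisation; unlabelled MLL peptide was the positive control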
gsp agonist: gsp mutant agonism. AID 624287. hit rate 0.13% among 340,000. gsp mutant cells, cAMP HTRF, 30 min; control for the full effect not named in the record. Potency, µM (series often up to 76.9 µM), for the others: top-dose activation (cAMP increase), hits mostly activators; active = well fitted activation curve with a large enough effect; inconclusive = small, poorly fitted or top-dose-only effect, or another doubt; inactive = no such curve, though single readings can be large or run the other way; cell line not stated here;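 note: phosphodiesterase inhibitor Ro 20-1724 added with compounds to block cAMP breakdown; potency is the fitted concentration of half-maximal effect; nearly all actives have a fitted effect of over 60% in size; about a fifth of the inactives were tested at one dose only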
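Cells in DMEM/10% FBS with G418 were pretreated with compounds in DMSO plus […] (300 uM stock) for 30 min at 37C. cAMP was measured by HTRF (cAMP-d2 plus anti-cAMP antibody-K) after 30 min at room temperature.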
TRPV1 potentiator: enhances activation of the human vanilloid receptor TRPV1 | Q8NER1 | TRPV1-expressing cells, Fluo-8 calcium influx, capsaicin EC20 potentiation; host cell line not named in the record; control for the full effect not named in the record | potentiation, % at 8.33 µM | hit rate 0.02% among 320,000 | AID 540277; active means potentiation above 80%; inconclusive means 30% to 80%; inactive means below 30%; note: 0% is about no effect
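TRPV1-expressing cells were cultured overnight at 35.5C and loaded with Fluo-8 calcium dye for 40 to 90 min at room temperature. After a 10 s baseline, compound was added and calcium influx was read kinetically for 3 min (ex 480/em 520 nm).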
TRPML1 inh: blocks the human TRPML1 channel. Q9GZU1. TRPML1-inducible cells, Ca2+ dye fluorescence, FDSS; stronger effect = lower value; inhibition of EC80 agonist-evoked calcium signal. activity change, negative = inhibition, % (concentration not given with the values). hit rate 0.02% among 390,000. AID 624415; in the data active means activity change below about -50%; inconclusive means about -30% to -50%; inactive means above about -30%;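 note: stimulus is agonist 54-4 at its EC80 concentration; % is set by controls: 0 for no effect and ±100 for the full control effect; compound concentration not given in the record; the text of the record puts the active cut at -80%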
Target sequence (Q9GZU1 whole entry, looked up): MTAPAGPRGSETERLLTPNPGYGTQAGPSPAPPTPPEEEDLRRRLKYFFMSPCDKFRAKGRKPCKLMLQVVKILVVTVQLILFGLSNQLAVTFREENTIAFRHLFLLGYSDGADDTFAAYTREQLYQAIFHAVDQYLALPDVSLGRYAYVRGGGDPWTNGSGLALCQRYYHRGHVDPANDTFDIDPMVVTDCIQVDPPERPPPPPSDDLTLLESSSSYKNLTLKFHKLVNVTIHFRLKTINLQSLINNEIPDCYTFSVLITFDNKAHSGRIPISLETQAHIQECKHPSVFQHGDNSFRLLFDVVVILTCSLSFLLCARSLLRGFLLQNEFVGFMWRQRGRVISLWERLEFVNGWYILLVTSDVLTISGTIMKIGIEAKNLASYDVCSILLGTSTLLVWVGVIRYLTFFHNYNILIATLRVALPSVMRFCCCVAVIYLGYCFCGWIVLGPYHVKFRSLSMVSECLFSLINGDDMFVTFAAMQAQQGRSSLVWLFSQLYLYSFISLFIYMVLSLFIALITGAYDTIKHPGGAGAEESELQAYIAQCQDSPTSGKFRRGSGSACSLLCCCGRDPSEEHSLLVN
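Tet-induced TRPML1-DL cells loaded with Ca8 no-wash calcium dye were read kinetically on FDSS. Compound addition was followed by EC80 agonist 54-4 (4 uM final); inhibition was read over 110 s.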
gsp antag: gsp mutant antagonism | Potency, µM (doses to about 76.9 µM), without a hit: top-dose activity change, negative = inhibition, usual class: inhibitors | gsp-mutant cells, cAMP HTRF, 30 min; control for the full effect not named in the record | AID 624288 | hit rate 0.4% among 340,000; active = falling curve of any shape with a large fitted effect; inconclusive = falling curve, mostly with a smaller effect; inactive = flat or rising curve; cell line not stated here;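 note: intracellular cAMP measured with PDE inhibitor Ro 20-1724 present during compound exposure; potency is the fitted concentration of half-maximal effect; % is set by controls: 0 for no effect and ±100 for the full control effect; nearly all actives have a fitted effect of over 65% in size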
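Measurement of cellular cAMP by homogeneous time-resolved fluorescence following a 30 min compound exposure at 37C. The PDE inhibitor […] was present throughout; the assay buffer was DPBS with 0.05% BSA and 0.005% Tween 20.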
Numbers without * were called inactive; u = inconclusive; x = not tested or not shown; [ ] = another dose, or the depositor's remark.

SMILES	Sfp PPTase inh	ClpP mod	Menin MLL FP FL	gsp agonist	TRPV1 potentiator	TRPML1 inh	gsp antag
O=C(Nc1ccc(N2CCN(c3ncccc3C(F)(F)F)CC2)nc1)c1cccs1	-1%	0.5%	0.7	3%[15.4 µM]	-1	4	50µM*
O=C(COc1cccc(Br)c1)N/N=C/c1ccc2c(c1)OCCO2	x	-0.5%	x	26%	x	-4	x
Cc1csc2nc(COC(=O)CNC(=O)c3ccc(Cl)cc3)cc(=O)n12	x	-19%	x	u	2	-3	-6%
O=C(/C=C/c1ccccc1)Nn1cnc2ccccc2c1=O	8%	x	-0.2	-8%[15.4 µM]	4	16	-6%
CC(=O)Nc1cccc(C(=O)N/N=C/c2ccc(F)cc2)c1	21%	x	-0.5	-7%[15.4 µM]	-1	22	5%
CC(=O)c1ccc(NC(=O)CN2CCCCCC2)cc1	10%	x	-7.7	-46%[inhibitor]	u	-7	14%
Nc1ccc(C2(c3ccc(N)cc3)OC(=O)c3ccccc32)cc1	4%	-3.4%	0.7	8%[15.4 µM]	10	5	7%
C=CCNC(=O)/C(C#N)=C/c1c(N2CCCCCC2)nc2ccccn2c1=O	5%	4.5%	7.7	13%	2	-6	-3%
COc1ccc(CNCCNC(=O)c2nonc2N)cc1OC	-1%	-1.3%	1.7	u	-33	8	5%
CCC(C)(C)C1CCC(=NNc2nc3ccccc3[nH]2)CC1 (configuration not stated)	-39%	-2.7%	0.4	u	-8	-9	6%
Cc1ccc2nc3c(cc2c1)CN(Cc1ccco1)C(=NCC1CCCO1)S3 (configuration not stated)	u	-3.6%	0.5	-7%	1	1	-18%
Cn1c(CNS(=O)(=O)c2cccc(Cl)c2)cc(=O)n(C)c1=O	14%	0.9%	x	7%	30	7	15%
CCCc1nnc2n1N=C(c1ccc(C)cc1)CS2	7%	2.2%	x	-22%	-24	4	-6%
Cc1[nH]c(=O)[nH]c1C(=O)CCCCC(=O)O	14%	-2.4%	0.5	u	-10	21	2%
CN(C)CCCNc1nc(-c2ccccc2)c2c(c1C#N)CC(C)(C)OC2	3%	3.8%	0.2	-14%	10	x	17%
CCn1c(CSc2nc3ccccc3s2)nnc1SCC(=O)OC(C)(C)C	-7%	u	-0.4	15%	-12	13	u
CCN(C(=O)COC(=O)CCC(=O)c1ccc(Cl)cc1)c1c(N)n(Cc2ccccc2)c(=O)[nH]c1=O	x	2.9%	x	-11%	x	3	-4%
C[C@@H]1CC=C[C@H]2[C@H]1C(=O)N(Cc1ccccc1)[C@H]2c1ccc(F)c(Br)c1	1%	x	0.4	x	4	x	x
O=C(O)CCN1C(=O)c2ccc(NC(=O)CSc3ccc(Cl)cc3)cc2C1=O	10%	x	3.3	-33%	-14	-12	-2%
Cc1ccc(S(=O)(=O)c2ccccc2)cc1S	45µM*	x	2.7	x	1	x	x
CCN(CC(=O)Nc1ccc(NC(C)=O)cc1)C(=O)c1oc2c(ccc3ccccc32)c1C	x	x	x	0%[15.4 µM]	24	-8	-18%
Cc1ccc(S(=O)(=O)N2CCN(C(=O)CN3C(=O)NC(C)(c4ccc(Cl)cc4)C3=O)CC2)c(C)c1 (configuration not stated)	x	-0.6%	x	u	x	36	-3%
COc1cccc(NC(=O)C2CCN(S(C)(=O)=O)CC2)c1	3%	0.1%	-0.2	-48%[inhibitor]	-3	-2	5%
CCNC(=S)NC1CC2CCCC(C1)N2CCc1ccccc1 (configuration not stated)	10%	-0.3%	-0.5	-7%	9	17	3%
Nc1ncc(N=Nc2cc(C(=O)O)ccc2Cl)s1	u	1.1%	12	-4%	12	-3	-1%

Carrying on:
SMILES	Sfp PPTase inh	ClpP mod	Menin MLL FP FL	gsp agonist	TRPV1 potentiator	TRPML1 inh	gsp antag
CCCOc1ccc(S(=O)(=O)N2CCN(C)CC2)c2ccccc12	-7%	x	-1.3	-37%[15.4 µM]	-6	2	-9%
COc1ccccc1OCc1ccc(C(=O)NC2CCCCC2)o1	11%	x	-0.5	17%[15.4 µM]	5	11	2%
CCOc1ccc2oc(=O)cc(CN3CCN(Cc4ccccc4)CC3)c2c1	2%	-12%	-1.7	-33%[inhibitor]	-27	x	-5%
COc1cc(N)c(Cl)cc1C(=O)OCC(=O)NCc1cccs1	x	-4.9%	x	-13%	x	-10	4%
Cn1c(COc2ccccc2)nnc1SCC(=O)Nc1ccc2c(c1)OCO2	5%	1.7%	0.1	36%	-11	0	-8%
Cc1ccc(NC(=S)NC(C)(C)C)c([N+](=O)[O-])c1	-20%	x	-9.3	6%[15.4 µM]	-20	18	1%
COc1ccc(/C=C2\SC(=O)N(CCNC(=O)Cc3coc4cc(C)ccc34)C2=O)cc1OC	-23%	-4.9%	5.6	-40%[inhibitor]	10	-4	u
CC(C)CN(C(=O)COC(=O)c1ccc([N+](=O)[O-])s1)c1c(N)n(Cc2ccccc2)c(=O)[nH]c1=O	x	-2.6%	x	15%	-11	7	14%
CSC[C@H]1CN(CCc2ccccc2)C(=O)[C@@H]1CC(=O)Nc1ccccc1	x	-1.3%	x	u	x	-5	x
CC(=O)Nc1ccc(NC(=O)C(C)OC(=O)c2ccc3ccccc3n2)cc1 (configuration not stated)	x	-1.6%	x	-27%	3	-9	-2%
CCN(C(=O)COC(=O)/C=C/c1cccc([N+](=O)[O-])c1)c1c(N)n(Cc2ccccc2)c(=O)[nH]c1=O	x	1.8%	x	-20%	4	-7	7%
Cc1cc(NC(=O)Cn2cnc3c(cnn3C(C)(C)C)c2=O)no1	6%	-0.5%	2.7	-22%	7	46	6%
CC(=O)Nc1ccc(NC(=O)C2CCCN2C(=O)Nc2ccc(F)c([N+](=O)[O-])c2)cc1 (configuration not stated)	6%	x	-0.2	-9%[15.4 µM]	5	0	4%
Cc1ccccc1NC(=O)CC(=O)c1ccccc1	12%	-0.7%	-0.6	-2%	1	-12	-6%
C=CCn1c(SCC(=O)O)nnc1-c1cccc(Cl)c1	15%	u	-2.3	u	0	2	-1%
Cc1cc(NC(=O)C(C)Oc2ccc(C(C)(C)C)cc2)no1 (configuration not stated)	10%	0.0%	1.6	-21%	-12	-9	3%
O=C(NNC(=O)c1ccccc1O)c1ccco1	20%	x	-1.7	u	-4	-18	2%
CN(C)c1ccc(NC(=O)CSc2n[nH]c(-c3ccncc3)n2)cc1	x	x	x	5%[15.4 µM]	x	3	17%
CCOc1ccc(C)cc1S(=O)(=O)NC1CCCCCC1	10%	-0.7%	0.0	-2%	-4	27	-5%
O=C(Nc1cc(C(F)(F)F)ccc1-n1cncn1)c1ccc([N+](=O)[O-])o1	x	-4.3%	x	-4%	6	0	-1%
N#Cc1ccccc1S(=O)(=O)N1CCN(C(=O)[C@H](Cc2ccccc2)NC(=O)c2ccco2)CC1	x	-2.0%	x	-73%[inhibitor]	-27	40	-3%
Cc1nc2ccccc2c(=O)n1N	21%	-8.2%	0.8	0%	10	43	2%
O=c1c2ccccc2nc(/C=C/c2ccc(Cl)cc2)n1CCO	0%	32µM*	-2.5	4%[15.4 µM]	-7	-5	-2%
CCOc1ccccc1NC(=O)c1cc(C(=O)Nc2ccccc2OCC)cc(N2C(=O)CCC2=O)c1	-7%	-0.2%	0.5	4%	10	-7	-14%
CCn1c(COc2ccc(C(C)C)cc2)nnc1SCC(=O)Nc1nccs1	19%	-0.9%	2.9	-50%[inhibitor]	12	-13	7%
Cc1ccc(OCC(=O)O/N=C(\N)c2cccc([N+](=O)[O-])c2)cc1C	2%	x	-1.4	-8%	12	-10	-10%
CCOc1ccc(S(=O)(=O)Nc2ccc(C(=O)N(C)CC(=O)Nc3ccc(OC)cc3)cc2)cc1	x	1.1%	x	-10%	9	-4	-8%
Cc1ccc(S(=O)(=O)N(C)c2ccc(OCC(=O)Nc3nc(-c4ccccc4)cs3)cc2)cc1	16%	-20%	5.9	-12%	6	-10	3%

Arranged by molar mass (falling): part of the list above.
SMILES	Sfp PPTase inh	ClpP mod	Menin MLL FP FL	gsp agonist	TRPV1 potentiator	TRPML1 inh	gsp antag
CC(C)CN(C(=O)COC(=O)c1ccc([N+](=O)[O-])s1)c1c(N)n(Cc2ccccc2)c(=O)[nH]c1=O	x	-2.6%	x	15%	-11	7	14%
CCN(C(=O)COC(=O)/C=C/c1cccc([N+](=O)[O-])c1)c1c(N)n(Cc2ccccc2)c(=O)[nH]c1=O	x	1.8%	x	-20%	4	-7	7%
CC(=O)Nc1ccc(NC(=O)C2CCCN2C(=O)Nc2ccc(F)c([N+](=O)[O-])c2)cc1 (configuration not stated)	6%	x	-0.2	-9%[15.4 µM]	5	0	4%
Cn1c(COc2ccccc2)nnc1SCC(=O)Nc1ccc2c(c1)OCO2	5%	1.7%	0.1	36%	-11	0	-8%
CC(=O)Nc1ccc(NC(=O)C(C)OC(=O)c2ccc3ccccc3n2)cc1 (configuration not stated)	x	-1.6%	x	-27%	3	-9	-2%
COc1ccccc1OCc1ccc(C(=O)NC2CCCCC2)o1	11%	x	-0.5	17%[15.4 µM]	5	11	2%
O=c1c2ccccc2nc(/C=C/c2ccc(Cl)cc2)n1CCO	0%	32µM*	-2.5	4%[15.4 µM]	-7	-5	-2%
CCOc1ccc(C)cc1S(=O)(=O)NC1CCCCCC1	10%	-0.7%	0.0	-2%	-4	27	-5%
C=CCn1c(SCC(=O)O)nnc1-c1cccc(Cl)c1	15%	u	-2.3	u	0	2	-1%
Cc1cc(NC(=O)C(C)Oc2ccc(C(C)(C)C)cc2)no1 (configuration not stated)	10%	0.0%	1.6	-21%	-12	-9	3%
Cc1ccc(NC(=S)NC(C)(C)C)c([N+](=O)[O-])c1	-20%	x	-9.3	6%[15.4 µM]	-20	18	1%
Cc1ccccc1NC(=O)CC(=O)c1ccccc1	12%	-0.7%	-0.6	-2%	1	-12	-6%
Cc1nc2ccccc2c(=O)n1N	21%	-8.2%	0.8	0%	10	43	2%

Bioassay records: PubChem, National Center for Advancing Translational Sciences (NCATS)
